PrP 5UTR inh – suppresses PrP 5' UTR mRNA reporter expression; inhibition, % (no concentration beside the values); hit rate 0.35% among 340,000; cell-based PrP 5' UTR mRNA reporter, plate reader;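 active = every replicate at 50% or more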;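 note: 0 = median of the neutral control wells; tested in H4 reporter cells; numbers are from one replicate; inactives centre near -14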
Mtb hypoxia inh – Mtb hypoxia fluorescent reporter inhibition; M. tuberculosis hypoxia-regulated fluorescent reporter, fluorescence; AID 1159583; hit rate 0.1% among 300,000; fluorescence inhibition, % (no concentration beside the values);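 active = 35 to 45% if threefold the growth effect, above 45% if 1.5-fold the growth effect; inactive = the rest, general growth blockers included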;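 note: wells of about 50 µL received 100 nL stock; 0% = vehicle wells and 100% = reference inhibitor wells; whole bacteria with a GFP reporter of the hypoxia response; strong numbers were not always called active; many hits fall short of the cut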
RN4220 kill – S. aureus RN4220 growth inhibition; OD600, 16 h; inhibition, % (test concentration not listed); hit rate 0.33% among 330,000;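 active = z-score of -3 or lower and OD600 up to 0.18 on both plates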;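 note: plate controls were untreated cells for no effect and reference antibiotic for full effect; stock transfer was 100 nL into about 80 µL; one replicate is shown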
Bead autofluor – counter-screen for toxin protease inhibitors: compound fluorescence. compound autofluorescence counterscreen, microsphere flow cytometry; active compounds read high. fluorescence intensity (test concentration not listed). hit rate 3.1% among 360,000;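 active = at least 3 SD above the mean of all compounds, about 16000 in these data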;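 note: 100 nL of 1 mM stock went into each well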
BJeLR lethal – kills HRASV12-expressing BJeLR cells; hit rate 0.17% among 300,000; BJeLR (HRASV12) viability, CellTiter-Glo ATP luminescence, 48 h; reference of the scale not given here; inhibition, % (test concentration not listed); AID 1554;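 active = replicate mean above 50%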;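 note: 50 nL library stock added to about 25 µL; numbers are from one replicate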
ugtP null kill – growth inhibition of S. aureus ugtP deletion strain | AID 1259309 | hit rate 0.54% among 330,000 | growth inhibition, % (concentration not given with the values) | S. aureus RN4220 ugtP deletion, OD600 growth, 16 h; some inactives read as strong as hits;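 active = z-score under -3 and OD600 up to 0.15 on both plates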;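 note: plate controls were untreated wells for no effect and antibiotic for full effect; wells of about 80 µL received 100 nL stock; the first replicate is given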
Mtb hypoxia inh growth – recorded beside Mtb hypoxia inh, whose call it bears; growth inhibition, %; measured here: M. tuberculosis growth (absorbance);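 0% = vehicle and 100% = reference antibiotic; read after six days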
* hit, by the source's call; / = no result given.

item	mol	PrP 5UTR inh	Mtb hypoxia inh	Mtb hypoxia inh growth	RN4220 kill
1	COc1ccc(CCNC(=O)CCNC(=O)c2ccccc2Cl)cc1	1	1	-5	5.7
2	CCC1CCCCN1C(=O)COC(=O)c1cc(C)nc2ccccc12 (centres undefined)	-26	9	6	0.2
3	COc1ccc(OC)c(C2C(C(C)=O)=C(O)C(=O)N2CCC(=O)O)c1 (centres undefined)	0	17	5	2.3
4	COc1ccc(NCc2ccc(OC)c(Cn3ccnc3)c2)c(OC)c1	-9	5	8	0.6
5	NP(=O)(OCCCc1ccccc1)c1ccccc1 (centres undefined)	-35	9	5	4.0
6	CCOc1cc(C(=O)Nc2ccc(C)cc2C)ccc1OCC(=O)N1CCCCC1	-35	5	2	3.8
7	Cc1cccc(N2C(=O)CC(Sc3nnc(C)s3)C2=O)c1 (centres undefined)	-4	-7	-5	23
8	CCCNC(=S)NC1CCCC1	-22	5	14	4.6
9	COc1cc(C(=O)NCc2cccnc2)ccc1OCC(=O)Nc1cccc(C(F)(F)F)c1	-8	-7	-2	-5.5
10	CC(NS(=O)(=O)c1ccc(Br)cc1)c1ccccc1 (centres undefined)	3	/	/	/
11	CCn1c2ccccc2c2nnc(SCN3C(=O)c4ccccc4C3=O)nc21	0	1	2	4.8
12	COc1cc(OC)c(C(=O)NNC(=S)NC2CCCCC2)cc1OC	-4	-1	1	3.3

item	Bead autofluor	BJeLR lethal	ugtP null kill
1	3437	-17	5
2	3706	/	5
3	9362	14	4
4	3425	9	-2
5	4454	-7	-4
6	2119	-3	-2
7	3103	1	9
8	9491	8	1
9	3945	6	-12
10	4283	3	/
11	3256	/	14
12	9154	-15	6

New compounds follow
item	mol	PrP 5UTR inh	Mtb hypoxia inh	Mtb hypoxia inh growth	RN4220 kill
13	Cc1nnc2n1N=C(c1ccc3c(c1)NC(=O)CO3)CS2	/	-6	10	-1.3
14	CC(=O)N(c1ccccc1)C1CCCC1	-8	5	1	5.3
15	O=C(C1CCCN(S(=O)(=O)c2cccs2)C1)N1CCC(N2CCCCC2)CC1 (centres undefined)	4	/	/	1.5
16	CC(=O)N1c2ccc(S(=O)(=O)NCC3CCC(C(=O)NC4CCCCC4C)CC3)cc2CC1C (centres undefined)	-19	17	6	4.5
17	C/C(=N\Nc1ccc(S(N)(=O)=O)cc1[N+](=O)[O-])c1ccccc1O	-5	/	/	/
18	COc1ccc(C)cc1N(CC(=O)NN=Cc1ccc2c(c1)OCO2)S(C)(=O)=O	/	-4	-14	7.9
19	O=C(COc1ccc2c(c1)CCC2)N1CCc2ccccc21	-54	6	3	3.1
20	COc1cccc(C(=O)O/N=C(\N)Cc2ccc(Cl)cc2)c1	-7	2	7	9.0
21	COCCNC(=O)CNC(=O)c1nn(-c2ccc(OC)c(Cl)c2)c(=O)c2ccccc12	-1	8	7	3.5
22	CC1(C)Cc2c(sc(NC(=O)C(=O)N3CCCCC3)c2C(=O)O)CO1	-13	7	-1	-1.3
23	COc1cc(NC(=O)CCN2CCN(C/C=C/c3ccccc3)CC2)cc(OC)c1	-29	1	1	3.4
24	CCCc1ccc(-c2cc(C(=O)Nc3ccc([N+](=O)[O-])cn3)c3ccccc3n2)cc1	-28	8	6	-0.6

item	Bead autofluor	BJeLR lethal	ugtP null kill
13	/	3	-5
14	2850	17	8
15	8821	3	-4
16	9016	12	-5
17	3482	6	/
18	/	/	1
19	6839	-14	5
20	8465	-21	2
21	2927	3	-4
22	5162	-4	8
23	4675	-2	16
24	2615	7	-7

Nos. 17 to 20, reprinted for reference:
item	mol	PrP 5UTR inh	Mtb hypoxia inh	Mtb hypoxia inh growth	RN4220 kill
17	C/C(=N\Nc1ccc(S(N)(=O)=O)cc1[N+](=O)[O-])c1ccccc1O	-5	/	/	/
18	COc1ccc(C)cc1N(CC(=O)NN=Cc1ccc2c(c1)OCO2)S(C)(=O)=O	/	-4	-14	7.9
19	O=C(COc1ccc2c(c1)CCC2)N1CCc2ccccc21	-54	6	3	3.1
20	COc1cccc(C(=O)O/N=C(\N)Cc2ccc(Cl)cc2)c1	-7	2	7	9.0

item	Bead autofluor	BJeLR lethal	ugtP null kill
17	3482	6	/
18	/	/	1
19	6839	-14	5
20	8465	-21	2

Continued.
item	mol	PrP 5UTR inh	Mtb hypoxia inh	Mtb hypoxia inh growth	RN4220 kill
25	COCCn1nnnc1C(c1ccc(OC)c(OC)c1)N1CCc2ccccc21 (centres undefined)	-39	13	4	4.7
26	O=C(CCN1CCN(S(=O)(=O)c2cccc([N+](=O)[O-])c2)CC1)Nc1ccccc1F	-1	8	8	4.9
27	O=C(N/N=C/c1ccccc1Cl)c1nc2ccc([N+](=O)[O-])cc2c(=O)[nH]1	-21	/	/	/
28	COc1cc(C)c2occ(/C(C)=N\O)c2c1	-31	/	/	/
29	Cc1ccccc1OCCC(=O)Nc1ccccc1C(=O)N1CCCCC1	-27	16	5	9.4
30	CC(C)OC(=O)C1C2c3ccccc3C(c3ccccc32)C1C(=O)O (centres undefined)	-10	2	19	-0.2
31	COC(=O)c1ccc(N2CCOCC2)c(NC(=O)c2ccc(Br)o2)c1	-1	6	3	4.2
32	COc1ccc(OC)c(N/C(C)=C/C(=O)c2ccc(Br)cc2)c1	-26	9	-6	22
33	COc1ccc2oc(C(=O)OCC(=O)N3CC(C)CC(C)C3)c(C)c2c1 (centres undefined)	-29	4	-3	4.0
34	O=S(=O)(c1cccc(-n2cnnn2)c1)N1CCOCC1	-21	9	7	3.3
35	O=C(Nc1ccccc1C(=O)Nc1ccccn1)c1cccc([N+](=O)[O-])c1	-8	21	11	7.4
36	Cc1ccc(S(=O)(=O)c2c(N)n(-c3ccccc3)c3nc4ccccc4nc23)cc1	-9	/	/	/

item	Bead autofluor	BJeLR lethal	ugtP null kill
25	10685	7	12
26	5492	0	-1
27	2225	1	/
28	5377	-3	/
29	3738	/	3
30	1926	8	4
31	6114	-8	7
32	4241	-4	7
33	4212	-14	-5
34	5253	-14	0
35	3171	-11	1
36	2633	-1	/

Carrying on.
item	mol	PrP 5UTR inh	Mtb hypoxia inh	Mtb hypoxia inh growth	RN4220 kill
37	CC(=O)c1ccc(S(=O)(=O)N2CCN(CCOc3ccc(Br)cc3)CC2)cc1	7	8	2	2.3
38	CN(Cc1ccccc1)C(=O)COc1ccc(-c2nnco2)cc1	-25	-1	1	0.1
39	COc1ccccc1NS(=O)(=O)c1cccc(C(=O)NCc2ccncc2)c1	-5	-5	-3	-1.7
40	CN(C(=O)COC(=O)c1cccnc1Nc1ccccc1F)C1CCS(=O)(=O)C1 (centres undefined)	-7	14	3	7.1
41	Cc1ccc2cc(-c3noc(C4CCCCC4)n3)c(=O)[nH]c2c1	-8	0	-3	2.6
42	C[C@@H]1O[C@@H](Oc2c(-c3cc(O)c(O)c(O)c3)oc3cc(O)cc(O)c3c2=O)[C@H](O)[C@H](O)[C@H]1O	3	/	/	/
43	O=C(c1cc(C2CC2)on1)N1CCN(c2ccc(F)cc2)CC1	-14	11	5	-5.7
44	Clc1ccc(C2=NOC(c3nnc(-c4ccccc4)o3)C2)cc1 (centres undefined)	-17	6	8	11
45	CCOc1ccc(Br)cc1S(=O)(=O)Nc1cccc(S(=O)(=O)N(CC)CC)c1	-21	6	-1	24
46	COc1ccc(OC)c(N(CC(=O)NCc2ccccn2)S(C)(=O)=O)c1	-4	5	2	5.7
47	CC1CCCCN1CCCNc1ccc(C(CC(N)=O)NC(=O)c2ccccc2)cc1[N+](=O)[O-] (centres undefined)	-28	5	0	6.3
48	COc1ccc(C2=Nn3c(nnc3-c3ccncc3)SC2)cc1OC	27	2	5	3.3

item	Bead autofluor	BJeLR lethal	ugtP null kill
37	6649	/	8
38	2518	-5	0
39	10728	3	-3
40	1999	-7	4
41	5297	2	9
42	3916	0	/
43	5794	1	2
44	3421	6	13
45	2585	-7	2
46	6576	2	2
47	3339	-1	-3
48	14717	3	-1

In the list so far, these have bromine:
item	mol	PrP 5UTR inh	Mtb hypoxia inh	Mtb hypoxia inh growth	RN4220 kill
10	CC(NS(=O)(=O)c1ccc(Br)cc1)c1ccccc1 (centres undefined)	3	/	/	/
31	COC(=O)c1ccc(N2CCOCC2)c(NC(=O)c2ccc(Br)o2)c1	-1	6	3	4.2
32	COc1ccc(OC)c(N/C(C)=C/C(=O)c2ccc(Br)cc2)c1	-26	9	-6	22
37	CC(=O)c1ccc(S(=O)(=O)N2CCN(CCOc3ccc(Br)cc3)CC2)cc1	7	8	2	2.3
45	CCOc1ccc(Br)cc1S(=O)(=O)Nc1cccc(S(=O)(=O)N(CC)CC)c1	-21	6	-1	24

item	Bead autofluor	BJeLR lethal	ugtP null kill
10	4283	3	/
31	6114	-8	7
32	4241	-4	7
37	6649	/	8
45	2585	-7	2

Next part:
item	mol	PrP 5UTR inh	Mtb hypoxia inh	Mtb hypoxia inh growth	RN4220 kill
49	O=C(CCSc1ccccc1)NCC1CCCO1 (centres undefined)	-35	6	8	5.5
50	COc1ccc2nc(C)cc(SCC(=O)Nc3c(C)cc(C)cc3C)c2c1	-6	13	9	1.8
51	CC(C)(C)c1ccc(OCc2ccc(C(=O)N/N=C/c3ccc(O)c(O)c3)cc2)cc1	-8	/	/	/
52	c1ccc(N2CCN(c3ccc4nncn4n3)CC2)nc1	-19	7	14	6.7
53	O=C(C1=C[C@H](c2ccc(C(F)(F)F)cc2)C[C@H](OCCCCO)O1)N1CCN(Cc2ccc3c(c2)OCO3)CC1	-11	/	/	/
54	CCN(C(=O)CSc1nnc2nc(C)cc(C)n12)c1ccccc1	7	8	0	2.9
55	CCCC(=O)C1=C(N(C)c2ccccc2)CC(C)(C)CC1=O	4	3	-3	0.4
56	CCOCC(=O)Nc1cc(OC)c(Cl)cc1OC	-16	/	/	3.8
57	CCCCn1nc(C(=O)Nc2cccc(C(=O)NC3CC3)c2)c2ccccc2c1=O	-8	20	12	-1.2
58	C/C(=N\NC(=O)CSc1nc(C)cc(C)n1)c1cccs1	-14	/	/	/
59	COc1cccc(N2C(=NC(=O)COc3ccccc3)SC3CS(=O)(=O)CC32)c1 (centres undefined)	-8	-2	0	3.6
60	COc1ccc(N(CC(=O)Nc2cc(OC)ccc2OC)S(=O)(=O)c2c(C)noc2C)cc1	-3	-3	6	6.2

item	Bead autofluor	BJeLR lethal	ugtP null kill
49	3553	-8	0
50	18106*	5	1
51	3897	0	/
52	5560	-9	13
53	3132	9	/
54	3341	7	1
55	3518	-13	2
56	4755	13	0
57	3388	/	-4
58	2586	0	/
59	6092	5	5
60	5657	3	-5

(list continues)
item	mol	PrP 5UTR inh	Mtb hypoxia inh	Mtb hypoxia inh growth	RN4220 kill
61	COc1ccc(/C=C/C(=O)c2ccccc2O)cc1CN1CCOCC1	-9	/	/	-3.5
62	S=C(NCCc1ccccc1)Nc1cccc2cnccc12	12	7	-5	8.6
63	CCOC(=O)c1sc(=NC(=O)c2ccc(OC(C)C)cc2)n(C)c1C	-9	9	8	3.9
64	CCCC1(CCC)C(=O)NC(=Nc2ccccc2)NC1=O	-6	13	10	0.7
65	O=C(NCCS(=O)(=O)N1CCC2(CC1)OCCO2)c1ccc(F)cc1	22	-12	9	-3.7
66	Cc1ccc(N/C(N)=N/c2nc3c(c(=O)[nH]2)CCCC3)c(C)c1	-26	4	0	4.8
67	S=C1NC2(CCCC2)Nc2ccccc21	-12	11	4	4.8
68	Cc1c(CBr)[n+](=O)c2c(n1[O-])C(Br)CCC2Br (centres undefined)	-15	0	0	1.2
69	CC(C)C[C@H](NC(=O)N1CCn2c1nc1ccccc12)C(=O)NCc1ccco1	-6	3	10	1.4
70	COc1ccc(OC)c2nc(-c3ccncc3)ccc12	-19	1	0	-1.4

item	Bead autofluor	BJeLR lethal	ugtP null kill
61	4793	6	4
62	3227	15	-6
63	5272	12	7
64	7307	2	5
65	7119	-1	0
66	7824	3	9
67	3257	2	4
68	5824	-8	0
69	5934	0	-2
70	3536	-18	-7
